gsp antag = qHTS for Antagonists of gsp, the Etiologic Mutation Responsible for Fibrous Dysplasia/McCune-Albright Syndrome: qHTS; Potency, µM (titrated, usually from 76.9 µM), without a hit: at the top dose activity change, negative = inhibition, hits mostly inhibitors; gsp-mutant cells, cAMP HTRF, 30 min; control for the full effect not named in the record; 340,000 tested, 0.4% active; active = falling curve of any shape with a large fitted effect; inconclusive = falling curve, mostly with a smaller effect; inactive = flat or rising curve; cell line not stated here;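 note: intracellular cAMP measured with PDE inhibitor Ro 20-1724 present during compound exposure; potency is the fitted concentration of half-maximal effect; % is set by controls: 0 for no effect and ±100 for the full control effect; nearly all actives have a fitted effect of over 65% in size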
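G418-selected cells were plated in DMEM/10% FBS for 16-24 h at 37C, then treated with compounds plus the PDE inhibitor […] (300 uM solution added) for 30 min at 37C. Intracellular cAMP was measured by HTRF after 30 min lysis at room temperature.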
gsp ag = qHTS for Agonist of gsp, the Etiologic Mutation Responsible for Fibrous Dysplasia/McCune-Albright Syndrome: qHTS; AID 624287, 2012; Potency, µM (top dose mostly 76.9 µM), inactives show at the top dose activation (cAMP increase), usual class: activators; gsp mutant cells, cAMP HTRF, 30 min; control for the full effect not named in the record; 340,000 tested, 0.13% active; active = well fitted activation curve with a large enough effect; inconclusive = small, poorly fitted or top-dose-only effect, or another doubt; inactive = no such curve, though single readings can be large or run the other way; cell line not stated here;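 note: phosphodiesterase inhibitor Ro 20-1724 added with compounds to block cAMP breakdown; potency is the fitted concentration of half-maximal effect; nearly all actives have a fitted effect of over 60% in size; about a fifth of the inactives were tested at one dose only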
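Cells in DMEM/10% FBS with G418 were pretreated with compounds in DMSO plus […] (300 uM stock) for 30 min at 37C. cAMP was measured by HTRF (cAMP-d2 plus anti-cAMP antibody-K) after 30 min at room temperature.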
D2 agonist = Beta-Arrestin HTS for Positive Allosteric Modulators of the Human D2 Dopamine Receptor: Agonists. activation, % (no concentration beside the values). 360,000 tested, 0.084% active. D(2) dopamine receptor (Homo sapiens), P14416. DiscoveRx PathHunter D2 beta-arrestin, luminescence, 90 min; 100% = 57 uM dopamine signal; in the data active = activation above about 40%; inconclusive = about 15% to 40%; inactive = below about 15%; note: compound concentration not given in the record; the text of the record calls up to 30% inactive
Target sequence (P14416 whole entry, looked up): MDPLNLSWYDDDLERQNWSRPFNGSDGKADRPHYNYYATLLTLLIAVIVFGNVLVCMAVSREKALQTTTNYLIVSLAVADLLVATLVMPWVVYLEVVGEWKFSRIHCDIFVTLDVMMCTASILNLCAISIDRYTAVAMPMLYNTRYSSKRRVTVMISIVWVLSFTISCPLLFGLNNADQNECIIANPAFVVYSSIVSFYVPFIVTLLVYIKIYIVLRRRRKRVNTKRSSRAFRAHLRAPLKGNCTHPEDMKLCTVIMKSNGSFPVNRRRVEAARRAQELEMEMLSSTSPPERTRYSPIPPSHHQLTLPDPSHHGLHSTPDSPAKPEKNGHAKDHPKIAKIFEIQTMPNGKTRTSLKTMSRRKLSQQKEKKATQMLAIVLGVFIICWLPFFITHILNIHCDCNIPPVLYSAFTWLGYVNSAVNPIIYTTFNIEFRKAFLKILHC
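DiscoveRx PathHunter D2 beta-arrestin cells (2,100/well) attached overnight, then compound-stimulated 90 min at 37 C in HBSS/10 mM HEPES/0.1% Tween-20 buffer; beta-galactosidase complementation read by luminescence after 1 h at ambient temperature. Dopamine 57 uM final (EC100) as control.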
Sfp inh = qHTS Assay for Inhibitors of Bacillus subtilis Sfp phosphopantetheinyl transferase (PPTase) | Biochemical Sfp PPTase activity, qHTS | Potency, µM, for the others: max response, negative = inhibition, most hits filed as inhibitors | 310,000 tested, 3.5% active | AID 1490, 2009; active = well fitted inhibition curve with a large enough effect; inconclusive = small, poorly fitted or top-dose-only effect, or another doubt; inactive = no such curve, though single readings can be large or run the other way;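 note: the enzyme is Sfp with the accession as filed and its product quenches rhodamine fluorescence; potency is the fitted concentration of half-maximal effect; 0% = enzyme reaction without inhibitor and -100% = no enzyme wells; top concentration of the series not given in the record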
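Buffer: 50 mM Hepes-Na pH 7.6, 10 mM MgCl2, 0.01% Nonidet P-40, 0.01% BSA. Enzyme 15 nM, pre-exposed to compound 15 min; substrates then added and fluorescence change tracked over 30 min.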
ClpP mod = qHTS Assay for Activators of ClpP. Potency, µM (titrated, usually from 57.5 µM), for inactives: at the top dose activity change, negative = active. 340,000 tested, 1.9% active. ATP-dependent Clp protease proteolytic subunit (Bacillus subtilis (strain 168)), P80244. purified B. subtilis ClpP, FRET peptide cleavage, 20 min; active = well fitted falling curve with a large enough effect; inconclusive = small, poorly fitted or top-dose-only effect; inactive = no such curve, though single readings can be large or run the other way; note: potency is the fitted concentration of half-maximal effect; the source files actives as falling curves though it sought activators and does not explain the sign; nearly all actives have a fitted effect of over 65% in size; many hits overshoot -100%
Target sequence (P80244 whole entry, looked up): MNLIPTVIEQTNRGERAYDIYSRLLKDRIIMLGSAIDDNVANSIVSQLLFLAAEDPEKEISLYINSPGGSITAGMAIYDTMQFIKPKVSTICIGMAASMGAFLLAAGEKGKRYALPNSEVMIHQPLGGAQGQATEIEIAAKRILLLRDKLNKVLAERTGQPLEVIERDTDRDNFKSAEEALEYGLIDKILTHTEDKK
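Buffer: 100 mM Tris/HCl pH8, 100 mM KCl, 0.05% low protease BSA, 2.5% glycerol, 0.01% Tween-20. ClpP 10 microg/mL final; 20 min RT; delta FRET normalized to ADEP and DMSO controls.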
Menin MLL FP FL = qHTS Assay for Inhibitors Targeting the Menin-MLL Interaction in MLL Related Leukemias: Competition With Fluorescein Labeled MLL-derived Peptide. 290,000 tested, under 10 active. FP activity change, % at 61.4 µM. AID 1766, 2009. Fluorescence polarization, fluorescein-MLL peptide displacement from menin; inconclusive = falling polarisation curve, or a change in total fluorescence; inactive = total fluorescence flat and polarisation flat or rising; no compound was filed as active; the % refers to the polarisation; negative = inhibition;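 note: % of control where 0% means no effect; inhibitors lower the polarisation; unlabelled MLL peptide was the positive control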
PINK1 expr mod = A Quantitative High throughput Screen to Identify Chemical Modulators of PINK1 Expression; PINK1 immunofluorescence, high-content cytometry, 24 h; Potency, µM (highest dose often 76.6 µM), for inactives: at the highest dose activation (PINK1 increase), most hits filed as activators; 410,000 tested, 0.2% active; active = well fitted activation curve with a large enough effect; inconclusive = small, poorly fitted or top-dose-only effect; inactive = flat fitted curve, though single readings scatter; cell line not stated here;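 note: potency is the fitted concentration of half-maximal effect; % of control where 0% means no effect; nearly all actives have a fitted effect of over 65% in size; a mitochondrial uncoupler was the plate control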
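Stable cell line treated 24 h with compounds at 5 concentrations (CCCP controls), then fixed and immunostained for PINK1 plus nuclear and cell stains; PINK1 immunofluorescence quantified by laser-scanning microplate cytometry.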
* = called active by the depositor; ? = inconclusive; nt = not tested or not shown; & = joins results of further samples; [ ] = remark or other dose.

molecule | gsp antag | gsp ag | D2 agonist | Sfp inh | ClpP mod | Menin MLL FP FL | PINK1 expr mod
Cc1ccc[n+](C(C(=S)NCc2ccco2)=C([O-])c2ccccc2Cl)c1 | -7% | -6% | -6.5 | nt | 1.7% | nt | -0.4%
Cc1ccc(NC(=O)CO/N=C(\N)c2ccccc2)cc1C | -3% | 1% | 0.8 | nt | nt | nt | -0.2%
CCO/N=C/c1ccc(OC)c(Oc2nc(OC)cc(OC)n2)c1 | 10% | 0%[15.4 µM] | -2.9 | 4% | nt | 1.7 | 4.4%
C[C@H](CO)N1C[C@H](C)[C@@H](CN(C)S(=O)(=O)c2ccccc2)Oc2ccc(NC(=O)CCC(F)(F)F)cc2C1=O | -1% | -8% | -0.6 | nt | -1.1% | nt | -0.2%
CN(C)C(=O)c1nc2ccccc2s1 | 3% | -10% | 5.8 | 8% | nt | nt | 2.6%
CC(=O)c1cccc(NCC(=O)N2CCN(S(=O)(=O)c3ccccc3)CC2)c1 | -16% | -12% | -7.3 | nt | 0.4% | nt | -1.5%
COC(=O)/C(=C1/Oc2ccc(C)cc2S1)C(F)(F)F | -7% | -25% | 1.5 | 16% | -7.9% | -0.8 | -0.3%
CC(C)c1cc(NCCOCCO)n2c(nc3ccccc32)c1C#N | 2% | 18% | -4.3 | 14% | 4.1% | -4.7 | -0.1%
CN1CCN(c2oc(Cc3cccc4ccccc34)nc2C#N)CC1 | -6% | 2%[15.4 µM] | -0.4 | ? | nt | 6.6 | -1.1%
COc1ccc(NS(=O)(=O)c2ccc(C)c(C(=O)NCC(c3ccco3)N(C)C)c2)cc1 (configuration not stated) | 2% | 6% | -1.5 | nt | -6.9% | nt | 0.5%
O=c1c2cccnc2[nH]c(=S)n1CCCN1CCN(c2ccc(F)cc2)CC1 | 7% | 14% | 13 | 10% | -0.8% | 2.9 | 3.9%
CC(C)C(CCNC(=O)CN1C(=O)c2ccccc2C1=O)c1ccco1 (configuration not stated) | -9% | ? | -6.9 | 10% | 0.7% | 1.4 | 1.5%
Cc1ccc(C)c(OCc2cc(C(=O)N3CCC(N4CCCC(O)C4)CC3)no2)c1 (configuration not stated) | 1% | 4% | 15 | -1% | -2.0% | 3.0 | -0.6%
CCN(CC(=O)NC(C)(C)C)C(=O)C(c1ccccc1)c1ccccc1 | 8% | -2%[15.4 µM] | -5.1 | 19% | nt | 0.2 | 0.1%
CCC1CCCCN1CCCNC(=O)c1ccc(CS(=O)(=O)Cc2ccc(Cl)cc2)o1 (configuration not stated) | 8% | ? | -2.8 | 19% | -0.5% | nt | -1.5%
CN(C)C(/C=C/Nc1ccc(O)cc1)=C(C#N)C#N | nt | 5%[15.4 µM] | -1.9 | 3% | nt | 2.9 | 1.0%
O=C(Cc1ccc(F)cc1)c1ccc(O)cc1O | -31% | 2% | 2.3 | 18% | -4.0% | -14 | 0.8%
O=C(CCN1C(=O)C2C3CCC(C3)C2C1=O)Nc1cccc(Cl)c1 (configuration not stated) | -8% | -37%[inhibitor] | 3.2 | 3% | -3.0% | -0.3 | -0.5%
CCOCc1cnc(C)nc1NCC(=O)c1c(C)n(C)c2ccc(OC)cc12 | -4% | -21% | -5.5 | 6% | -1.9% | 0.9 | 0.7%
CCn1c2ccc(/C(C)=N\O)cc2c2cc(/C(C)=N\O)ccc21 | -12% | -2% | 0.5 | -2% | ? | -1.2 | -1.2%
CN(Cc1ccccc1)C1(CNC(=O)CCC(F)(F)F)Cc2ccccc2C1 | -12% | 8%[15.4 µM] | -2.8 | 18% | -0.3% | 5.2 | 0.6%
N#Cc1ccccc1NC(=O)Nc1cccs1 | 9% | ? | -1.0 | -17% | -9.9% | -5.8 | 2.6%
O=C(NCc1ccc(Cl)cc1)C1CCN(S(=O)(=O)c2ccc(F)cc2)CC1 | -3% | 9% | -1.4 | 7% | -1.7% | -0.4 | -2.6%&-0.8%
COc1cccc(CNC(=O)c2nnn(CC(=O)Nc3ccc(C)c(C)c3)c2N)c1 | 11% | -18% | 3.0 | -8% | 2.6% | -0.1 | 13%
CCOC(=O)[C@@H]1[C@H]2COc3cc(OC)ccc3[C@@H]2N2C(=O)N(c3ccc(F)cc3)C(=O)[C@@]12C | 5% | -55%[inhibitor] | -3.5 | nt | 1.9% | nt | -0.3%
CCCCCc1cc(=O)oc2c(C(CCN3CCCC(C)C3)c3ccc4c(c3)OCO4)c(OC)cc(OC)c12 (configuration not stated) | 13% | nt | 4.9 | 0% | -9.8% | -2.1 | -0.8%
O=C(c1cc(COc2ccc(F)cc2Cl)on1)N1CCCCCC1 | 1% | 15% | 0.4 | 1% | 1.9% | nt | -0.7%
O=C(COC(=O)/C=C/c1cccc(Br)c1)NC1CCCCCC1 | 13% | -24% | 0.2 | nt | -0.1% | nt | 4.0%
Cc1ccc(-c2csc3nc(C)n(-n4c(C)ccc4C)c(=O)c23)o1 | 1% | 16% | -5.0 | 20µM* | -2.8% | 1.3 | 1.9%
Cc1cccc(NC(=S)N2CCN(c3ccccc3F)CC2)c1C | -7% | -42%[inhibitor] | 2.5 | 3% | 0.6% | -1.4 | -1.0%
CC(C)(C)OC(=O)C[C@H]1C/C=C\C[C@@H](CC(=O)N[C@H](CO)Cc2ccccc2)C(=O)NC[C@H](c2ccccc2)OC1=O | 0% | -40%[inhibitor] | 1.4 | nt | 0.9% | nt | 0.6%
CC(C)(C)OC(=O)N1CCN(c2ccc(NC(=O)Cn3nnc(-c4ccccc4)n3)cc2)CC1 | 1% | 13% | 14 | -4% | 0.5% | 0.2 | 12%
CC(C)C(c1nnnn1Cc1ccco1)N1CCN(c2cccc(Cl)c2)CC1 (configuration not stated) | -12% | 14% | -6.1 | 1% | -0.4% | 3.0 | 0.6%
COc1ccccc1NC(C)=[N+](C)CCNS(=O)(=O)c1ccc(Cl)cc1 | 7% | -53%[inhibitor] | -4.9 | ? | -0.1% | nt | -0.9%
CNS(=O)(=O)c1ccc2c(c1)oc(=O)c1cc(S(=O)(=O)NC)ccc12 | 0% | -11% | 6.6 | 15% | -32% | 7.7 | -0.2%
CC1=CC(C)(C)N2C(=O)C(=Nc3ccc(O)cc3)c3cccc1c32 | 7% | -76%[inhibitor] | 13 | ? | -9.3% | 0.7 | 0.1%
CO/N=C(\N)c1ccc([N+](=O)[O-])cc1 | 7% | -48%[inhibitor] | 5.3 | 16% | -0.5% | -1.7 | -0.7%
COc1ccccc1NC(=O)c1c(O)c2ccccc2[nH]c1=O | 0% | 2% | -2.2 | 4% | -28% | -2.3 | 0.5%
CC1=CC(=O)C2=C(C)CC[C@@H]3[C@H](OC(=O)[C@H]3C)[C@@H]12 | 7% | -37% | 0.7 | 8% | 0.4% | 3.9 | 1.5%
COCCNC(=S)N(CCc1c(C)[nH]c2ccc(C)cc12)Cc1cccnc1 | -19% | ? | -0.9 | 6% | -2.5% | 0.1 | 1.7%
COc1cccc(NC(=O)c2nc3nc(C)cc(C(F)F)n3n2)c1 | -2% | -18% | 3.3 | 19% | 2.0% | 3.7 | 0.8%
COCCCNC(=O)CN(c1cc(Cl)ccc1OC)S(=O)(=O)c1ccc(C)c([N+](=O)[O-])c1 | -7% | -26% | -3.5 | 17% | nt | -6.9 | 2.2%
CC[N+](CC)(CC(=O)Nc1c(C)cccc1C)Cc1ccccc1 | 0% | nt | 0.4 | -26%&-9% | 2.4% | ? | -0.2%
CCNS(=O)(=O)c1ccc(CCC(=O)N2CCN(Cc3ccccc3)CC2)cc1 | -4% | ? | -3.4 | 28% | 1.6% | -5.5 | -1.5%
O=C(COC(=O)Cc1ccc(Cl)cc1)Nc1cc(S(=O)(=O)N2CCOCC2)ccc1N1CCCC1 | 6% | -8% | -0.9 | -1% | -1.0% | 1.7 | 1.6%
CSc1ccc(/C=N/Nc2nc(C)cc(=O)[nH]2)cc1 | 4% | -1%[15.4 µM] | 0.3 | 56µM* | nt | -1.1 | 4.0%
COc1ccccc1OCCNC(=O)CCNC(=O)c1ccccc1OC | 0% | 13% | -1.8 | nt | -0.9% | nt | 1.8%
O=C(O)c1ccc(S(=O)(=O)c2ccc3c(c2)C(=O)N(NC(=O)c2ccncc2)C3=O)cc1 | 5% | 2%[15.4 µM] | -2.2 | -15% | nt | 0.7 | 2.8%
CCCOC(=O)Cn1cnc2scc(-c3ccc(OC)cc3)c2c1=O | -9% | -17% | 0.7 | 6% | -15% | 0.7 | -0.5%
CC1=CC(=NOS(=O)(=O)c2ccc(C)cc2)CC(C)(C)C1 | nt | nt | ? | nt | 0.8% | nt | 0.6%
CC(C)(C)c1ccccc1NC(=S)NCc1ccccc1 | 3% | 0% | -6.9 | -13% | 3.5% | -2.3 | -1.5%
Cc1c(NC(=O)c2c(N)sc3c2CCCC3)c(=O)n(-c2ccccc2)n1C | -9% | -3% | -1.5 | 28µM* | 1.0% | 1.6 | 0.0%
COC(=O)CN1C(=S)N(c2ccc(F)cc2)C(=O)C1CC(=O)Nc1ccc(F)cc1 (configuration not stated) | -13% | 5% | 1.9 | 4% | nt | 16 | -0.4%
O=C(COc1ccccc1[N+](=O)[O-])N(Cc1ccco1)C1CCS(=O)(=O)C1 (configuration not stated) | 7% | 1% | -3.4 | 5% | -1.0% | nt | 0.6%

From PubChem
